Bioassay records deposited in PubChem by National Center for Advancing Translational Sciences (NCATS).
hNpr1 antagonist: antagonists of human natriuretic peptide receptor Npr1. P16066. HEK293 hNpr1 GloSensor cGMP, ANP-stimulated luminescence. Potency, µM (titrated, usually from 46.3 µM), inactives show top-dose activity change, negative = inhibition, usual class: inhibitors. actives 1.6% (n = 76,000). AID 1347048; active = well fitted inhibition curve with a large enough effect; inconclusive = small, poorly fitted or top-dose-only effect; inactive = no such curve, though single readings can be large or run the other way;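 also: nearly all actives have a fitted effect of over 60% in size; nearly all hits also lower the signal before the agonist is added; a reference antagonist and vehicle were the controls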
Target sequence (P16066 whole entry, looked up): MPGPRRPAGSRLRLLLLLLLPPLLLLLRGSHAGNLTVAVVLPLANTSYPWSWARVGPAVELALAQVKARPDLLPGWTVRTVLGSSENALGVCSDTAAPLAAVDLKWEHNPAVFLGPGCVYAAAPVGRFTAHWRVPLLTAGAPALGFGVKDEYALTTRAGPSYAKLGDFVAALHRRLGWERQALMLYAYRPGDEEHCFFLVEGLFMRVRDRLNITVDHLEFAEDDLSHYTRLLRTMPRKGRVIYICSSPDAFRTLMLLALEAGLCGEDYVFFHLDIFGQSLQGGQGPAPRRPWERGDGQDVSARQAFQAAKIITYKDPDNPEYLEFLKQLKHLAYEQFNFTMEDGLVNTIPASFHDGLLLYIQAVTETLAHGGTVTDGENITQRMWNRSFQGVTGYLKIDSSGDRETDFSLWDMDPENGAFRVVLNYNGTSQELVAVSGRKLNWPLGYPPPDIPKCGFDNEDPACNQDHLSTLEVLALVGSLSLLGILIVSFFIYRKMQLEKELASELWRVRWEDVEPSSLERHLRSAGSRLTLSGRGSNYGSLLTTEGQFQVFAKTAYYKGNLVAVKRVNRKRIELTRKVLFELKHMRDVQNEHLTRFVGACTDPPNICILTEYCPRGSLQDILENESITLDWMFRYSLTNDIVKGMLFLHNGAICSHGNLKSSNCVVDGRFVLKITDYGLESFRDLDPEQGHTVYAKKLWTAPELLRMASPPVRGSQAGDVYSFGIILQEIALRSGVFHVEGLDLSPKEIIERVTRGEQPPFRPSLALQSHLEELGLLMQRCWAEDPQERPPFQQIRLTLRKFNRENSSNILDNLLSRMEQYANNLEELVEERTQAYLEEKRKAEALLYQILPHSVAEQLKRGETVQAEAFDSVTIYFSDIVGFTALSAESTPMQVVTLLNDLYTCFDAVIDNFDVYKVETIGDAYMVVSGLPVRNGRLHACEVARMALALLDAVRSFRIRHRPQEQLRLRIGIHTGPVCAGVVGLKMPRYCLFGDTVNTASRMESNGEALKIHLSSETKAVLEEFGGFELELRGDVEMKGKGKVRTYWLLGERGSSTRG
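Compound pre-incubated 30 min at room temperature on GloSensor-loaded HEK293 cells stably carrying hNpr1 and the pGS-40F cGMP biosensor. Stimulation uses hNppA at 0.1 nM final; luminescence is taken at baseline and 20 min post-agonist.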
* hit, by the source's call; u = inconclusive; & = joins results of further samples; [ ] = another dose, or the depositor's remark. % is scaled to controls: 0 for no effect and ±100 for the full control effect; potency is read from the fitted curve at half-maximal effect. Not all compounds are listed; count on the stated rates, not on these rows.

Structure	hNpr1 antagonist
CCN(CC)Cc1cnc2c(C(=O)NC3CCC3)cnn2c1	8%
Cc1ccc(C(=O)N2CCN(C(=O)c3nnn4c3COC(c3ccc(C)cc3)C4)CC2)cc1 (stereo unspecified)	-25%
COc1ccc(CCNC(=O)CN2C(=O)C(c3ccccc3)=NC2(C)C)cc1OC	3%
O=C(COc1ccc(Cl)cc1)N1C[C@@H](CO)[C@H](c2ccncc2)C1	4%
COCCOc1ccc2c(n1)CCN(C(=O)c1cccc(C)c1)C2	0%
Cn1cnc(S(=O)(=O)N2CCC3(CC2)CC(Cc2ccccc2)CCO3)c1 (stereo unspecified)	-1%
CC(c1cccs1)N(C)Cc1cccnc1 (stereo unspecified)	3%[70.6 µM]
Cc1cc(C)n(Cc2ccc(C(=O)NCCc3noc(-c4cccnc4)n3)o2)n1	3%
O=C1N[C@@H]2CCN(C(=O)C3CCCCC3)[C@@H]2C(=O)N1c1ccc(Oc2ccccc2)cc1	-1%[70.6 µM]
CN(C)[C@@H]1[C@@H](NC(=O)c2ccc(N3CC(=O)NC3=O)cc2)[C@H]2CCO[C@H]21	1%
Cc1ccc(C(=O)N2CCCCCCN(C)C(=O)[C@@H]3CCC[C@@H]32)s1	2%
Cc1cc(C)c(CNC(=O)c2nc(-c3ccccc3C#N)cc3c2ccn3C(C)C)c(=O)[nH]1	-1%
O=C(CCC1CCCC1)Nc1ccc(-c2nnc3n2CCCC3)cc1	5%
COc1ccc(N2CC(C(=O)N3CCC(C(=O)NC4CC4)C3)NC2=O)cc1 (stereo unspecified)	24%&1%
O=C1CCCCC(CNC(=O)C2CCCC2)N1 (stereo unspecified)	8%
Cc1ccccc1Oc1c(CCC(=O)NCC2CCCO2)c(C)nn1-c1ccc(F)cc1 (stereo unspecified)	u
C[C@H](O)c1onc(-c2ccccc2)c1C(=O)NC(C)(C)C	4%[70.6 µM]
CCNC(=O)C1C(c2cccc(NC(=O)c3ccc(OC)cc3)c2)OC(=O)N1Cc1ccc(C)cc1 (stereo unspecified)	u
CN(C)Cc1nnc(C2CCCN(C(=O)c3cnn4ccccc34)C2)n1C (stereo unspecified)	4%
COCC1CN(C(C)=O)CC12CCN(C(=O)c1cc3ccccc3[nH]1)CC2 (stereo unspecified)	-12%
COc1cc(C)ccc1OCC(=O)c1ccc2c(c1)N(CCCC(=O)N1CCOCC1)C(=O)CO2	-2%
CC(=O)N1CCc2ccc(C(=O)NC3CCCCCC3)cc21	14µM*
COC[C@]1(O)CCN(C(=O)CSCc2ccccc2C)CC1(C)C	2%
CC1(c2ccccc2)N(Cc2ncccn2)C(=O)OC12CCN(C(=O)Cc1ccc3c(c1)OCO3)CC2 (stereo unspecified)	-4%
Cc1noc2c(NCCCn3ccnc3)cc(-c3ccc(Cl)cc3)nc12	3%[70.6 µM]
Cc1nnc(CNC(=O)C2CCC(=O)N(CCN3CCOCC3)C2)o1 (stereo unspecified)	2%
c1ccc(-c2noc(-c3cncnc3Nc3ccc4c(c3)OCCO4)n2)cc1	-6%
Cc1ccsc1C(=O)NC1CCc2nn(CC3CC3)c(=O)n2CC1 (stereo unspecified)	7%
CCOc1cc(=O)n2c(c1C(=O)Nc1ccccc1OC)CCCC2	0%
COC(=O)c1cc2n(n1)CCN(C(=O)CCc1cccc(OC)c1)C2	6%
COc1cccc(CN2Cc3nc(Oc4ccccc4)ccc3OCC2=O)c1	-22%[70.6 µM]
COc1ccc(-c2nc(C(C)C)nc3c2CCN(C(=O)c2ccc(C(F)(F)F)cc2)CC3)cc1	-15%
CCOC(=O)c1cccc(NC(=O)N2CC[C@@H](CC(=O)NC3CC3)[C@@H](CC)C2)c1	-2%[70.6 µM]
COc1ccc(-c2cc(N3CCC(NC(=O)c4cc(Cl)ccc4F)CC3)n[nH]2)cc1	0%
COc1cccc(CN2CCC[C@@H](O)[C@H](NC(=O)c3ccc(OCc4ccccc4)cc3)C2)c1	-15%
O=C(Nc1nccs1)c1ccc2c(c1)OCCN(c1ccccc1)C2	-18%[70.6 µM]
CC(C)S(=O)(=O)N1CCC(N2CC(OCC3CC3)C23CCCCC3)CC1 (stereo unspecified)	2%
O[C@@H]1CN(Cc2ccc(-n3cccn3)cc2)CC[C@H]1c1ccc(F)cc1	u
COCCOc1cc(C)c2c(c1C)C[C@H](C(C)C(=O)NC(C)(C)C)CC2 (stereo partly specified)	0%[70.6 µM]
Cc1cn2c(=O)cc(CN3CC[C@@](C)(O)[C@@H](O)C3)nc2s1	-5%
O=C(COc1ccc(F)cc1)N1CC2CC(C1)[C@H]1CCCC(=O)N1C2 (stereo partly specified)	-2%
CC(C)NC(=O)N1CCC[C@@H](O)[C@H](NC(=O)c2ccc(OCC(N)=O)cc2)C1	4%[70.6 µM]
CCOc1ccc(NC(=O)C2CCCN(c3cn[nH]c(=O)c3)C2)cc1 (stereo unspecified)	3%
CN1Cc2ncnc(NCC3CCCCC3)c2CN(c2ccccc2)C1=O	4%
COc1ccc([C@@H](NC(=O)c2cc3ncccn3n2)C2CC(O)C2)cn1 (stereo partly specified)	2%
CC1(C)C(=O)Nc2ccc(S(=O)(=O)N3CCC(c4noc(-c5ccccc5)n4)C3)cc21 (stereo unspecified)	-14%
CCC(c1cccs1)N1C(=O)[C@H]2CN(S(=O)(=O)c3ccc(C)cc3C)C[C@H]2C1=O (stereo partly specified)	-13%
COc1ccc(CN2Cc3[nH]nc(-c4ccccc4Oc4ccccc4)c3CC2=O)cc1	-11%[70.6 µM]
COc1nccnc1NC1CCN(C(=O)c2n[nH]c3c2CCCC3)CC1	1%
CC1=C[C@@H](CNC(=O)COCC(=O)O)[C@H](C(C)C)C[C@H]1Cc1nc2ccc(F)cc2[nH]1	5%[70.6 µM]
CC1(CNC(=O)c2cnccn2)CCOCC1	1%
O=C(c1ccccn1)N1CCN(Cc2ccc(=O)n(CC3CC3)c2)CC1	0%
CCOc1ccccc1NC(=O)C1c2ccccc2C(=O)N(CCOC)C12CCCCC2 (stereo unspecified)	u
O=C(Cc1ccc(Cl)cc1)N1CCN(c2nnc3ccccn23)CC1	8%
C#CCN(C)C[C@@H]1C=C(C)[C@H](Cc2nnc(-c3ccccc3F)o2)C[C@H]1C(C)C	u
O=C1NCCN(Cc2cccnc2)C1CC(=O)N(Cc1ccccc1)CC1CCC1 (stereo unspecified)	-3%
Cc1ccc(C(=O)NC2CCN(c3cc(-c4ccccc4)[nH]n3)CC2)cc1F	-14%
O=C(c1ccco1)N1C[C@@H]2C(CN(CC#Cc3ccccc3)C3CC3)[C@@H]2C1 (stereo partly specified)	2%
O=C(c1ccc2c(c1)OCO2)N1C[C@@H](CO)[C@H](c2ccccn2)C1	-2%
COCC(=O)N1CCCC(c2nn(-c3cccc(Cl)c3)c(=O)[nH]2)C1 (stereo unspecified)	-4%

Pulled by structure from above (7):
Structure	hNpr1 antagonist
O=C(c1ccc2c(c1)OCO2)N1C[C@@H](CO)[C@H](c2ccccn2)C1	-2%
Cc1ccc(C(=O)NC2CCN(c3cc(-c4ccccc4)[nH]n3)CC2)cc1F	-14%
O=C(c1ccco1)N1C[C@@H]2C(CN(CC#Cc3ccccc3)C3CC3)[C@@H]2C1 (stereo partly specified)	2%
O=C(Cc1ccc(Cl)cc1)N1CCN(c2nnc3ccccn23)CC1	8%
CCOc1ccccc1NC(=O)C1c2ccccc2C(=O)N(CCOC)C12CCCCC2 (stereo unspecified)	u
COc1nccnc1NC1CCN(C(=O)c2n[nH]c3c2CCCC3)CC1	1%
CC1=C[C@@H](CNC(=O)COCC(=O)O)[C@H](C(C)C)C[C@H]1Cc1nc2ccc(F)cc2[nH]1	5%[70.6 µM]

Carrying on.
Structure	hNpr1 antagonist
CS(=O)(=O)N1CCCCCCNC(=O)[C@@H]2CCC[C@@H]21	-1%
CN(CC1CCOC1)C(=O)Nc1cc(F)c(F)c(F)c1 (stereo unspecified)	5%
Cc1ccc2c(c1)N1C(=O)OC[C@@H]1CCN(CC1CC1)C2	-23%[70.6 µM]
COCCC(=O)N1CC2CC(C1)[C@H]1CCCC(=O)N1C2 (stereo partly specified)	1%
CCc1nc(-c2c3n(c(=O)n(Cc4ccccc4OC)c2=O)CCCCC3)no1	5%
O=S(=O)(c1ccccc1)N1CCN(c2cc(C3CC(O)C3)ncn2)CC1 (stereo unspecified)	-21%&-12%
O=C(CCC[C@@H]1[C@H]2CCCN3CCC[C@@H](CN1C(=O)c1cccnc1)[C@@H]23)NCCN1CCCCC1	3%
COCCO[C@H]1C(=O)N(C2CCN(C(=O)c3ccc4cc[nH]c4c3)CC2)[C@H]1c1ccncc1	-1%
CN1CCN(C(=O)c2cc3c(s2)CCN(C(=O)c2ccc(Cl)cc2)C3)CC1	0%
Cc1nn(C)c(C)c1CN(Cc1ccnc2ccccc12)C1CC1	-4%
Cn1ccnc1CNC[C@H]1Cn2c(-c3ccc(Cl)cc3)cnc2CO1	-1%[70.6 µM]
O=C(NC1CCCCC1)N[C@H]1[C@H](O)[C@@H](N2CCCCC2)[C@@H]2OC[C@H]1O2	2%[70.6 µM]

In the list so far, 2 have a tert-butyl group.
Structure	hNpr1 antagonist
C[C@H](O)c1onc(-c2ccccc2)c1C(=O)NC(C)(C)C	4%[70.6 µM]
COCCOc1cc(C)c2c(c1C)C[C@H](C(C)C(=O)NC(C)(C)C)CC2 (stereo partly specified)	0%[70.6 µM]

Further compounds:
Molecule,hNpr1 antagonist
CCNC(=O)[C@@H]1C[C@@H](NC(=O)CN2CCOCC2)CN1Cc1ccc(C)o1,3%
COc1ccc(-c2noc([C@@H]3CCCN3C(=O)CCCc3ccccc3)n2)cc1OC,-1%
c1ccc2ncc(CNC[C@H]3Cn4c(-c5ccc6c(c5)OCCO6)cnc4CO3)cc2c1,35µM*
CCc1noc(-c2ccn3c(CNC(=O)CCC4CCCC4)nnc3c2)n1,5%
Cc1noc(-c2nc(-c3ccc(N(C)C)cc3)no2)n1,4%
CCNC(=O)N[C@H]1CC[C@]2(C)CCC([C@H](C)C(=O)NCc3ccccc3OC)[C@H](O)[C@H]2[C@@H]1C (stereo partly specified),7%
CN(CCC(O)c1ccccc1)C(=O)c1ccc2oc(-c3cccc(F)c3)nc2c1 (stereo unspecified),-5%
CCO[C@H]1CN(C(=O)CN(c2cccc(C)c2)S(C)(=O)=O)C[C@@H]1O,5%
COCCn1ncc(N2CCCC(CC(=O)NCCc3ccccc3)C2)cc1=O (stereo unspecified),9%
Cc1nn2c(c1-c1ccccc1C(N)=O)N(C(=O)Cc1cccc(F)c1)CCC2,-1%[70.6 µM]
c1ccc(N2CCN(c3cc4c(cn3)CN(Cc3ccncc3)CCN4)CC2)nc1,u
O=C(c1ccc(F)cc1)N1CCC2(CC1)CC(N(Cc1ccccc1)C1CC1)CCO2 (stereo unspecified),-21%
Cc1ccc2oc([C@H]3CCN(Cc4cccc(Cl)c4)C3)nc2c1,-27%[70.6 µM]
CCO[C@H]1CN(C2CN(S(=O)(=O)c3ccc(C)cc3)C2)C[C@@H]1O,5%
COc1cc(CN2CCC3(CCNCC3)C2)cc(OC)c1OC,4%
CN(C)C(=O)C1CN(C(=O)c2ccncc2)CC12CCOCC2 (stereo unspecified),2%
CCC(=O)N1CCC2(CC1)C(OC)C(=O)N2CC1CC1 (stereo unspecified),-3%
CN(C)c1cccc(NC(=O)Cc2c[nH]c3ncc(-c4cnn(C)c4)cc23)c1,-23%[70.6 µM]
CCCNC(=O)N1CCOC[C@H](Oc2ccccc2)C1,5%[70.6 µM]
COc1ccc(CC(=O)N2[C@@H]3CC[C@H]2CC(NC(=O)c2cnc(C)cn2)C3)cc1OC (stereo partly specified),2%
COc1ccc(-c2cc(N3CCC(NC(=O)c4cc(C)cc(C)c4)C3)n[nH]2)cc1 (stereo unspecified),-9%
CC(C)CCNC(=O)c1cnc2n1CCN(Cc1ccc3[nH]ccc3c1)CC2,-3%[70.6 µM]
O=c1cc(-c2ccccn2)oc2c(-c3cn[nH]c3)nccc12,-1%[70.6 µM]
O=C1[C@H]2CN(Cc3cccc(Cl)c3F)C[C@H]2C(=O)N1CCc1ccccc1,-11%
Fc1ccc(-c2cc(CC3(NCc4cccc5c4OCO5)COC3)no2)cc1,-9%[70.6 µM]
CC(C)S(=O)(=O)N1CCC(N2C(=O)C3(CCCC3)C2c2ccccc2)CC1 (stereo unspecified),3%
O=S1(=O)CCC(Cc2nc(-c3ccccn3)nn2Cc2ccccc2)C1 (stereo unspecified),5%
O=C(NCc1ccc(F)cc1F)c1noc(-c2ccc3c(c2)OCO3)n1,2%
CN(CC1CCOCC1)S(=O)(=O)c1ccccc1F,0%
O=C(NCc1cccnc1)C1CCN(c2cn[nH]c(=O)c2)C1 (stereo unspecified),4%
C=C(C)CN(CC)C(=O)c1coc(CN2CCN(C/C=C/c3ccccc3)CC2)n1,8%
Fc1ccc(Cc2nc3nccc(-c4ccco4)n3n2)cc1,1%
COCCOc1ccc2c(n1)CCN(C(=O)Cc1cccc(F)c1)C2,-8%
CCC1(C(=O)O)CCCCC(=O)N1 (stereo unspecified),1%
O=C(NCc1ccc(F)cc1)c1noc(-c2ccc3c(c2)OCO3)n1,1%
COc1ccccc1N1CCN([C@@H]2[C@H](O)[C@H](CO)O[C@@H]2CN(Cc2ccc(F)cc2)Cc2ccc(F)cc2)CC1,u
